# Compound activity from PubChem BioAssay.
# NPYLR7 agonist – mosquito NPYLR7 agonism; HEK293T NPYLR7/Galpha15, GCaMP6s calcium fluorescence; activation, % at 10 µM; 270,000 compounds, 0.15% hits; in the data active = activation above about 40%;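 note: 0% = vehicle and 100% = reference agonist at the receptor; some compounds past the cut are filed as inactive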
# NPYLR7 agonist max-min – also measured in NPYLR7 agonist; calls as there; activation, %; measured here: Max-Min RFU normalised activation; some inactives read as strong as hits;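 span of the calcium signal over five minutes; 0% = vehicle and 100% = native peptide agonist; compound fluorescence can raise it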
# Active calls of the source: *; & = joins results of further samples; ! = a repeat was not active. This is a subset, so the mix of outcomes need not match the whole.
SMILES,NPYLR7 agonist,NPYLR7 agonist max-min
CC(=O)c1ccccc1-c1cccc(C(=O)NC(C)C)c1,4,1
COc1ccc(F)cc1Cn1nnc(-c2ccc(F)cc2)n1,-2,1
COc1cc(Cn2ccnc2-c2nccn2C)cc(OC)c1OC,10,-11
CC1(C(=O)Nc2nc(-c3cccc(Cl)c3)ns2)CCOCC1,-24,-24
CC(C)C(NC(=O)c1ccco1)C(=O)OCC(=O)Nc1ccc(F)cc1[N+](=O)[O-] (centres undefined),23,19
COC(=O)c1ccc2c(c1)nc(N1CC(c3cccnc3)C1)n2C,-5,-6
CC(=O)N1CCc2cc(NC(=O)CSc3nncn3C)ccc21,14,4
O=C(Nc1ccccc1F)c1csc(CSc2nnc(-c3ccco3)n2-c2cc(Cl)ccc2Cl)n1,22,27
NC(=O)c1nc(-c2cccs2)nc2c1[nH]c(=O)n2-c1cccc(Cl)c1,2,10
O=C(O)C1(CCOc2ccccc2)CCN(c2ncnc3[nH]ccc23)CC1,9,0
O=S(=O)(c1cccc2ccccc12)N1CC(c2cccnc2)C1,0,14
CC(NC(=O)CN1CCc2ccccc2C1)c1cn2ccsc2n1 (centres undefined),-5,-11
O=C(c1cc(-c2ccc(F)cc2)nc2cc(-c3ccccc3)nn12)N1CCN(c2ccccc2Cl)CC1,8&20,6&22
O=C1Nc2ccccc2C1=NN=Cc1ccc2c(c1)OCO2,-5,-8
COCc1nn2c(=O)c(NC(=O)c3ccc(C)cc3)cnc2s1,0,-1
Clc1ccc(-c2nc(NCCC(c3ccccc3)c3ccccc3)c3ccccc3n2)cc1,-1,1
CC1CCCCC1OCCN1CCCC(c2ccnn2CCO)C1 (centres undefined),5,1
CCS(=O)(=O)Nc1cccc(C2=NN(S(C)(=O)=O)C(c3cccc(C)c3)C2)c1 (centres undefined),2,-1
Cc1cccc2nc(CSc3nncn3-c3ccccc3F)cc(=O)n12,-3,-6
COC(=O)c1ccc(CC2(C)C(=O)Nc3ccc(OC)cc32)o1 (centres undefined),0,1
O=C(Nc1cccc(-c2nn[nH]n2)c1)N1CCCC1Cc1ccccc1 (centres undefined),1,-1
O=C(CSc1ccc(Br)cc1)NCc1ccc(N2CCOCC2)nc1,9,15
Cc1ccccc1OCC(O)CN(Cc1ccccc1Cl)CC1CC(c2ccc(F)cc2)=NO1 (centres undefined),-2,2
C=CCN(Cc1cnc(-c2cccc(C)c2)nc1)Cc1ccco1,12,17
O=S1(=O)CCC(NC(=S)SCc2cccc(F)c2)C1 (centres undefined),-2,-5
Cc1c(C#N)c(N=Cc2c(O)[nH]c(=O)[nH]c2=O)n(C2CCCCC2)c1C,13,7
COCC(=O)Nc1cc(C)nn1-c1ncnc2c1cnn2-c1ccc(C)c(C)c1,9,7
CCS(=O)(=O)c1ccccc1C(=O)NCc1cccc(C(=O)N2CCCC2)c1,0,0
O=C(c1ccc2c(c1)OCO2)C1CCCN(C(=O)c2scc3c2CCCC3)C1 (centres undefined),17,6
COc1cccc(CCC2CCCN(C(=O)CCc3n[nH]c(C)n3)C2)c1 (centres undefined),9,7

# Structural class: those above containing two or more sulfur atoms (3)
SMILES,NPYLR7 agonist,NPYLR7 agonist max-min
O=C(Nc1ccccc1F)c1csc(CSc2nnc(-c3ccco3)n2-c2cc(Cl)ccc2Cl)n1,22,27
CCS(=O)(=O)Nc1cccc(C2=NN(S(C)(=O)=O)C(c3cccc(C)c3)C2)c1 (centres undefined),2,-1
O=S1(=O)CCC(NC(=S)SCc2cccc(F)c2)C1 (centres undefined),-2,-5

# The results go on.
SMILES,NPYLR7 agonist,NPYLR7 agonist max-min
Cc1cc(C)c(-c2nc3cc(NC(=O)c4ccc(Cl)c(Cl)c4)ccc3o2)c(C)c1,1,10
CC(CCc1ccccc1)NC(=O)c1cc(-c2ccco2)nn1-c1ccccc1Cl (centres undefined),15,16
CCCCCN(C(=O)C(Cl)c1ccccc1)C(C)c1nc2ccccc2c(=O)n1-c1ccccc1OCC (centres undefined),-4,1
CCCCCC(=O)Nc1c(-c2ccc(OC)c(OC)c2)nc2ccc(C)cn12,-3,-2
O=C(NC1CCCc2ccccc21)c1ccc(-c2cc(-c3ccc(Cl)cc3)[nH]n2)cc1 (centres undefined),21,21
CCCNC(=O)N1CCC2(CC1)C(=O)Nc1ccccc12,0,-1
CCN1C(=O)C=CC1=O,-3,-17
CC(C)CC1NC(=O)N(CC(=O)N(C(C)C)C(C)C)C1=O (centres undefined),3,2
CCn1ncnc1C1CC(=O)Nc2c1c(-c1ccccn1)nn2C (centres undefined),13,4
CCNc1nc(C)c(C(=O)N2CCC3(CC2)C(=O)N(C)c2ccccc23)s1,13,6
CCc1nn2c(nnc3c(=O)n(C(C)C(=O)O)ccc32)c1-c1ccc(Cl)cc1 (centres undefined),3,2
O=C(Nc1cccc(F)c1)c1n[nH]c(CCc2ccccc2)n1,4,5
CN(CC(=O)NCC(F)(F)F)S(=O)(=O)c1ccc(F)cc1Cl,4,0
Cc1cc(F)ccc1S(=O)(=O)N1CCNC(C(=O)O)C1 (centres undefined),-2,-6
O=C(c1cccnc1Oc1cccc([N+](=O)[O-])c1)N1CCCCC1,-8,-15
CC(Cc1ccc2c(c1)OCO2)CN1CCn2c(nnc2C(=O)N2CCOCC2)C1 (centres undefined),14,7
CCN(CC)P(=Nc1ccccc1)(c1c(C)nc2ccccn12)N(CC)CC,5,3
CN(Cc1n[nH]c2c1CCCCC2)C(=O)c1cc(COc2cccc3cccnc23)on1,17,9
COc1ccc(C(C)C(=O)N2CCN=C2SC)cc1 (centres undefined),-5,-5
COCCN(CC(=O)N(CCc1c[nH]c2ccccc12)Cc1ccc(F)cc1)C(=O)C(C)(C)CCl,7,18
COc1ccccc1C(=O)C1CCCN(C(=O)c2csc3c2CCCC3)C1 (centres undefined),7,-3
C=CCn1c(SCC(=O)NC(C)C(=O)NCCC)nc2scc(-c3ccc(C)cc3)c2c1=O (centres undefined),0,-3
CN(Cc1ccccc1)Cc1nc2c(c(=O)n(C)c(=O)n2C)n1Cc1ccc(Cl)cc1Cl,-2,-2
Clc1ccc(-c2nc(CSCc3cccs3)cs2)cc1,23,32
O=C(NCC(=O)N1CCC(C(=O)N2CCCCC2)CC1)Nc1c(F)cccc1F,16,7
CCc1nc(SC(C)C(=O)Nc2cc(Cl)cc(Cl)c2)n[nH]1 (centres undefined),16,15
CC1CCCCC1NC(=O)Nc1cn(C)c2ccccc12 (centres undefined),3,-4
O=C(C1CC1)N(CCN1CCOCC1)Cc1c(-c2ccccc2)noc1N1CCCCC1,9,9
Cc1ccc(NC(=O)Cn2c(=O)n(Cc3ccco3)c(=O)c3sc4ccccc4c32)c(C)c1,-4,-10
COc1cccc(CC2CN(C(=O)CCc3c(C)noc3C)CCO2)c1 (centres undefined),4,7
COc1cc(OC)cc(C(=O)N2CCC3(CC2)C(=O)N(CC(=O)NC(C)c2ccccc2)CN3c2ccccc2)c1 (centres undefined),21,27
COc1ccc(OC)c(NC(=O)c2nn(-c3ccc(C)cc3)c(=O)cc2OC)c1,7,-1
CN(C)CCCNS(=O)(=O)c1ccc(S(=O)(=O)N2CCCC2)cc1,15,27
CCC(C)OC(=O)C1=C(C)NC2=C(C(=O)CC(c3ccccc3)C2)C1c1cccc2ccccc12 (centres undefined),3,14
COC(=O)[C@@H]1C[C@@H](N(C)C)CN1C(=O)CC(=O)Nc1ccc(C)cc1,7,3
CC(C(=O)NC1CCCCCC1)n1c(NCCO)nc2ccccc21 (centres undefined),-2,-3
CC(C)(C)COC(=O)N[C@H]1[C@H](O)[C@@H]2O[C@H]1c1ccccc12,1,-1
COCCN(CC(=O)N(CCc1c[nH]c2ccccc12)Cc1ccc(F)cc1)C(=O)Nc1ccc(C)c(C)c1,-2,-9
CCOc1ccc(OCCCOc2ccc(C)cc2)cc1,-1,21
CCNC(=O)N[C@H]1CCN(C)C[C@@H](O)C1,10,17
Cc1cnc(C)c(N2CCN(C(=O)CCC3(Cc4ccc(Cl)cc4)CCC(=O)N3)CC2)n1 (centres undefined),4,3
O=C(Nc1ccc(-c2nnc3n2CCCCC3)cc1)C1Cc2cc(Cl)ccc2O1 (centres undefined),3,0
O=C(NCCc1ccccc1)N1CCN(c2c3c(nc4ncnn24)CCCC3)CC1,23,10
O=C(Nc1c(F)cc(Br)cc1Br)N[C@@H](Cc1ccccc1)C(=O)N1CCC(C(=O)N2CCCCC2)CC1,-3,-4
COc1ccc(OC)c(S(=O)(=O)NC(=O)C2(C)CCN2C(=O)Cc2cccc3ccccc23)c1 (centres undefined),5,5
CCCc1cc(C(=O)OCC)c(NC(=O)c2cc(Cl)cc(Cl)c2)s1,11,1
CCOC(=O)c1nn(-c2ccc(F)cc2)c(=O)cc1N1CCC(Cc2ccccc2)CC1,9,3
CS(=O)(=O)N1CCCC1C(=O)NCc1nncn1-c1ccccc1 (centres undefined),-1,3
Cc1cccn2c(=O)nc(SCc3cccc(F)c3)nc12,4,2
CCOC(=O)C1CCCN(c2nc3nonc3nc2N2CCSCC2)C1 (centres undefined),45*!,59*!
C=CCNC(=S)NS(=O)(=O)c1ccc(Cl)s1,13,11
O=C(Cn1c2ccccc2c(=O)c2ccccc21)Nc1ccc(Oc2ccccc2)cc1,-5,-4
COc1cc2sc(C)[n+](C)c2c2ccccc12,3,-2
O=C(NCCN1CCOCC1)c1csc(CSc2nnc(-c3ccccc3Cl)n2-c2ccccc2F)n1,4,12
COc1ccc(Cl)cc1NC(=O)C(C)OC(=O)Cn1cc(C(F)(F)F)ccc1=O (centres undefined),6,6
O=C(CN1c2cccc3cccc(c23)S1(=O)=O)N1CCc2ccccc21,1,-1
Cc1cn2c3c(=O)n(CCc4ccccc4)c(=O)n(C)c3nc2n1CCN1CCOCC1,1,7
Cc1cnccc1CN(C)C(=O)C(C)(C)NC(=O)c1cccs1,28,19
CCCCN(CC(=O)N1c2ccccc2-n2cccc2C1c1ccc(C)cc1)C(=O)/C=C/c1ccccc1 (centres undefined),26,23
Cn1nnc2c(NCc3ccc(Cl)cc3)ncnc21,17,9

# Three of these compounds, reformatted.
O=C(NCCN1CCOCC1)c1csc(CSc2nnc(-c3ccccc3Cl)n2-c2ccccc2F)n1
  NPYLR7 agonist: 4
  NPYLR7 agonist max-min: 12

COc1ccc(Cl)cc1NC(=O)C(C)OC(=O)Cn1cc(C(F)(F)F)ccc1=O (centres undefined)
  NPYLR7 agonist: 6
  NPYLR7 agonist max-min: 6

O=C(CN1c2cccc3cccc(c23)S1(=O)=O)N1CCc2ccccc21
  NPYLR7 agonist: 1
  NPYLR7 agonist max-min: -1

# Next part
SMILES,NPYLR7 agonist,NPYLR7 agonist max-min
COc1ccc(C)cc1NC1CCCN(S(=O)(=O)c2ccc(C)cc2)C1 (centres undefined),3,10
Cc1nnc(NC(=O)CSc2nnc(NC(=O)c3ccccc3I)s2)s1,-1,9
COc1cccc2c1OCCCN(C(=O)c1cn(C/C=C/c3ccccc3)nn1)C2,10,2
COCCN(CC(=O)N(CCc1c[nH]c2ccccc12)Cc1ccc(C(F)(F)F)cc1)S(=O)(=O)c1ccc(Br)cc1,7,3
COc1ccc(OC)c(C2SC(C)C(=O)N2CCN(C)C(=O)Nc2ccccc2OC)c1 (centres undefined),17,18
CCNC(=S)N1CCC(C(NC(=O)c2ccc(C)cc2)C(=O)NC(C)CC)CC1 (centres undefined),-5,5
O=C(Cc1cccc2ccccc12)NNC(=O)c1ccc(Cl)s1,6,5
CC(CNC(=O)N(C)Cc1cnccn1)Cc1cccs1 (centres undefined),4,2
CCNC(=O)[C@@H]1C[C@H](N)CN1C(=O)c1c(Cl)cnn1CC,-1,-4
CCOc1ccc(-c2ccnc(N3CCN(C(=O)c4cc(Cl)cc(Cl)c4)CC3)n2)cc1,23,23
Cc1oc(-n2cccc2)c(C#N)c1C(=O)N1CCC(C)CC1,4,2
COc1ccccc1CCc1nnc(CCC(=O)N2CCCC2c2ccc(F)cc2)o1 (centres undefined),10,7
COc1ccc(N2C(=O)CSC2c2ccc3c(c2)OCO3)cc1OC (centres undefined),-6,-7
Cc1ccc(C(=O)COC(=O)c2sc(-c3ccccc3)nc2C)cc1,7,3
O=C(Nc1ccc(OCc2cn3ccccc3n2)cc1)C1CCOC1 (centres undefined),15,9
NC(=O)COc1ccc(CN2CC[C@@]3(O)CCCC[C@H]3C2)cc1Cl,-1,10
CCOC(=O)c1c(NC(=O)Cn2nc(C)c([N+](=O)[O-])c2C)sc2c1CCC(C)C2 (centres undefined),-2,-3
CCc1c(C)nn(-c2ccc(C(=O)Nc3cccc(-c4ccnc(C)n4)c3)cc2)c1C,-19,-24
OCCOCCN1CCCC1c1ccc(F)cc1 (centres undefined),4,-6
COc1ccc(NC(=O)C(C)n2ccnc2)cc1Br (centres undefined),2,-2
COCCn1ccc2nc3ccn(-c4ncn[nH]4)c(=O)c3cc2c1=O,3,7
O=[N+]([O-])c1cccc2nc(C=Cc3cc4ccccc4nc3N3CCOCC3)ccc12,-1,-5
CCC(C)n1c(=S)[nH]c2sc3c(c2c1=O)CCCCC3 (centres undefined),9,3
COC(=O)Cn1c(CN2CC(C)CC(C)C2)nc2c1c(=O)n(C)c(=O)n2C (centres undefined),3,16

# In the list so far, 9 contain an aryl thioether with sulfur outside any ring:
SMILES,NPYLR7 agonist,NPYLR7 agonist max-min
CC(=O)N1CCc2cc(NC(=O)CSc3nncn3C)ccc21,14,4
O=C(Nc1ccccc1F)c1csc(CSc2nnc(-c3ccco3)n2-c2cc(Cl)ccc2Cl)n1,22,27
Cc1cccc2nc(CSc3nncn3-c3ccccc3F)cc(=O)n12,-3,-6
O=C(CSc1ccc(Br)cc1)NCc1ccc(N2CCOCC2)nc1,9,15
C=CCn1c(SCC(=O)NC(C)C(=O)NCCC)nc2scc(-c3ccc(C)cc3)c2c1=O (centres undefined),0,-3
CCc1nc(SC(C)C(=O)Nc2cc(Cl)cc(Cl)c2)n[nH]1 (centres undefined),16,15
Cc1cccn2c(=O)nc(SCc3cccc(F)c3)nc12,4,2
O=C(NCCN1CCOCC1)c1csc(CSc2nnc(-c3ccccc3Cl)n2-c2ccccc2F)n1,4,12
Cc1nnc(NC(=O)CSc2nnc(NC(=O)c3ccccc3I)s2)s1,-1,9
